Assay outcomes from PubChem.
PV pol inh – poliovirus RNA polymerase inhibition; AID 588519; 0.66% of 150,000 active; % elongation, % (compound at 16.7 µg/mL); poliovirus polymerase elongation, fluorescence polarization; hits give low values; P03300; in the data active = % elongation below about 90%; also: some results filed as inactive read as strong as hits
Target sequence (P03300 1749-2209 limits assumed): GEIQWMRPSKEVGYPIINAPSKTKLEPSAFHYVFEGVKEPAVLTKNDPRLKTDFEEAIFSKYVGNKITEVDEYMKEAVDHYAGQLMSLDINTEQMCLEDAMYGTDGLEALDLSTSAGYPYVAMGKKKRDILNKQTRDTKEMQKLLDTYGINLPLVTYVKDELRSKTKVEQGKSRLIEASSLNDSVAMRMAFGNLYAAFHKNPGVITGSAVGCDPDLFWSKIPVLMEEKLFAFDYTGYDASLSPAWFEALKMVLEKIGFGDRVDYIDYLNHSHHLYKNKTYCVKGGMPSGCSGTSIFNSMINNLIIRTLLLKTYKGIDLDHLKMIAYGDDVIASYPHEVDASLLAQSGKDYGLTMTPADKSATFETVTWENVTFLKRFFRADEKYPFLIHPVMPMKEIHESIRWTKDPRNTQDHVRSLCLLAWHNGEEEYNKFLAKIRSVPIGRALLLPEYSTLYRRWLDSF
MbtI inh – inhibitors of Mycobacterium tuberculosis siderophore enzyme MbtI | purified MbtI enzyme, fluorescence intensity read-out | P9WFX0 | 0.89% of 100,000 active | inhibition, %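 (about 17 µg/mL by stock and volumes)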;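 active = above 50% in both replicates, above 80% if mildly self-fluorescent; inactive = the rest, strongly fluorescent compounds included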;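 also: 0% = mean of negative and 100% = mean of positive controls; one replicate is shown; some compounds called inactive have numbers as strong as hits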
Target sequence (P9WFX0 whole entry, looked up): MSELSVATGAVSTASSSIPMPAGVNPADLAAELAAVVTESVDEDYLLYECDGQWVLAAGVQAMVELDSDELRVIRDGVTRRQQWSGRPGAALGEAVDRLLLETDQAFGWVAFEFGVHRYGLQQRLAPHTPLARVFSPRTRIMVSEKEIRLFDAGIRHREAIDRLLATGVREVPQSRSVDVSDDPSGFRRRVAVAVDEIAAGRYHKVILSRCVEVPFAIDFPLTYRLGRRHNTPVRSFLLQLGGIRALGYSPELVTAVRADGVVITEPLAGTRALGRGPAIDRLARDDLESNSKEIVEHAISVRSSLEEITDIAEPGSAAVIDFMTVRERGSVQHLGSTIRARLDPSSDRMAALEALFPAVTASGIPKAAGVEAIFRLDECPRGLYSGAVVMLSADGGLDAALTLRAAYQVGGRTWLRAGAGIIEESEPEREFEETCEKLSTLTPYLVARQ
MenB inh – blocks the Mycobacterium tuberculosis MenB enzyme. MenB enzyme assay, absorbance read-out; some hits fall short of the stated cut. inhibition, %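 (about 12 µg/mL by stock and volumes)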. 0.43% of 100,000 active. P9WNP5;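 active = mean of two replicates above 30%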;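 also: 0% = no compound and 100% = wells with inactive enzyme; the first replicate is given; strong numbers were not always called active; inactives centre near -10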
PV pol inh intensity – recorded beside PV pol inh, whose call it bears; % elongation; measured here: total intensity read-out; formula for this scale not given here;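 total fluorescence in place of polarization; lower means less elongation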
An asterisk follows results filed as active; i = inactive; . = no result given; & = joins results of further samples.

SMILES	PV pol inh	PV pol inh intensity	MbtI inh	MenB inh
Cc1ccccc1C(=O)N1CCC(C(=O)N2CCCc3ccccc32)CC1	101.0	106.0	16.4	-46.1
O=C(Nc1nnc(CCN2CCOCC2)s1)c1ccc(Cl)cc1	100.0	99.0	3.9	-16.2
Cc1ccc(-c2nnc(SCc3ccc(C#N)cc3)o2)cc1	102.0	104.0	-10.8	-25.5
O=C(c1ccc(Cl)cc1)c1cnc2ncccn12	101.0	102.0	11.4	-1.5
CC(C)CN(C(=O)COc1ccc(C#N)cc1)c1c(N)n(CC(C)C)c(=O)[nH]c1=O	107.0	101.0	-0.1	-26.1
COCCc1ccc(OCC(O)CNC(C)C)cc1 (stereo not given)	99.0&102.0	101.0&101.0	0.3&-8.7	1.5&7.7
CCOc1ccc2nc(N3CCC(C(=O)NCCOC)CC3)sc2c1	100.0	99.0	-1.4	2.6
CCOc1ccc(S(=O)(=O)N2CCC(C(=O)N(c3ccccc3)c3nc(C)cs3)CC2)cc1	103.0	106.0	12.9	8.1
COC(CNC(=O)c1ccc2c(=O)n(Cc3ccco3)c(=S)[nH]c2c1)OC	101.0	102.0	10.3	16.3
CCOc1ccc(-c2nnc(N(C(=O)C3CCC3)C(C)C)s2)cc1	100.0	102.0	4.2	0.5
Cc1cccc(C)c1OC(=O)C1=CN2CCS(=O)(=O)N=C2C=C1	100.0	100.0	-8.9	-6.2
CC1(C)C(=O)Nc2ccccc2N1C(=O)COC(=O)CSc1nnc(-c2ccc(Cl)cc2)o1	100.0	101.0	3.4	2.7
CCn1cc(C(=O)NC)c(=O)c2ccc(C)nc21	99.0	104.0	-3.5	-24.4
COc1ccc(NC(=O)C(=O)/C=C(\O)c2ccccc2)cc1	105.0	100.0	-1.8	-38.9
COc1cccc(CN(C)CC(=O)Nc2c(C#N)c(C)c(C)n2Cc2ccco2)c1OC	102.0	106.0	3.8	-27.5
CN(C(=O)Nc1ccc(Cl)cc1)n1cnc2ccccc2c1=O	102.0	104.0	-14.6	4.0
O=C(NCc1ccccc1)c1ccc(S(=O)(=O)C(F)F)cc1	106.0	103.0	6.0	-6.2
Cc1ccc(C(=O)c2cc(F)c(N3CCOCC3)cc2Cl)cc1C	101.0	106.0	1.4	-24.7
COc1ccc(-c2nc(CN3CCCC3c3cccs3)cs2)cc1OC (stereo not given)	102.0	103.0	29.5	14.5
N/C(=N\OC(=O)c1ccc(Br)o1)c1ccncc1	105.0	103.0	6.8	-0.5

Four structures out of the list, ordered by molar mass, ascending.
SMILES	PV pol inh	PV pol inh intensity	MbtI inh	MenB inh
O=C(c1ccc(Cl)cc1)c1cnc2ncccn12	101.0	102.0	11.4	-1.5
CC(C)CN(C(=O)COc1ccc(C#N)cc1)c1c(N)n(CC(C)C)c(=O)[nH]c1=O	107.0	101.0	-0.1	-26.1
CCOc1ccc(S(=O)(=O)N2CCC(C(=O)N(c3ccccc3)c3nc(C)cs3)CC2)cc1	103.0	106.0	12.9	8.1
CC1(C)C(=O)Nc2ccccc2N1C(=O)COC(=O)CSc1nnc(-c2ccc(Cl)cc2)o1	100.0	101.0	3.4	2.7

(continued)
SMILES	PV pol inh	PV pol inh intensity	MbtI inh	MenB inh
CC(C)n1c(=O)c2oc3ccccc3c2n(Cc2ccccc2)c1=O	104.0	102.0	2.4	-17.1
COc1cc(OC)c(C(=O)OCCOc2ccccc2C)cc1OC	106.0	105.0	-166.9	-11.9
CC(c1ccccc1)C1CC(=O)N(Cc2ccccc2)C1=O (stereo not given)	99.0	101.0	-0.1	8.7
CS(=O)(=O)c1ncc(Cl)c(C(=O)N(Cc2ccccc2)c2ccccn2)n1	102.0	102.0	i	-6.9
CCOC(=O)CSc1n[nH]c(CN2c3ccccc3Sc3ccccc32)n1	101.0	93.0	5.5	-4.9
Cc1noc(C)c1COc1cccc(C(=O)OCC(=O)c2ccc[nH]2)c1	105.0	106.0	1.2	-16.9
O=C(COC(=O)c1ccco1)N=c1sccn1Cc1ccccc1Cl	103.0	108.0	-0.8	-1.1
O=c1c2ccccc2c(=O)n2n1Cc1ccccc1C2	101.0	104.0	-7.0	3.6
CC1(C)C2CCC1(CS(=O)(=O)N1CCCC1)C(=O)C2 (stereo not given)	105.0	104.0	-1.7	-26.9
N#CC1(NC(=O)COc2ccc3ccccc3c2)CCCC1	102.0	111.0	-0.6	-9.8
O=C(COc1coc(CN2CCc3ccccc3C2)cc1=O)N1CCCC1	102.0	102.0	-1.6	-3.0
COC(=O)C(C(=O)N1CCCc2ccccc21)C1CCCC1 (stereo not given)	101.0	105.0	-9.9	-4.5
C(=N/N1CCN(c2ccccc2)CC1)/c1ccccc1	100.0	97.0	5.0	-13.3
CSCC(=O)OCc1cc(=O)oc2cc3c(cc12)CCC3	102.0	110.0	-15.3	-0.1
O=C(CCc1nc2ccccc2o1)OCc1cc(=O)n2c3c(sc2n1)CCCC3	101.0	103.0	-40.2	-15.2
CN(Cc1c(F)cccc1Cl)C(=O)Cc1ccc2c(c1)OCCO2	105.0	107.0	2.2	2.7
O=S(=O)(NC1CCCC1)c1cccs1	102.0	104.0	-13.9	22.9
S=c1[nH]c2ccccc2n1CCc1ccccc1	67.0*	66.0*	80.5*	-56.7
CC(C)Cn1c(SCn2nnc3ccccc3c2=O)nc2ccccc2c1=O	103.0	108.0	-2.5	0.6
NS(=O)(=O)c1ccc(N2CCCC2=O)cc1	103.0	107.0	.	-13.9
O=C(O)CSc1nc2ccccc2n2cnnc12	100.0	113.0	8.7	-6.0
O=C(CCS(=O)(=O)c1ccc(F)cc1)Nc1ccccc1	103.0	106.0	-2.8	-15.8
COc1ccc(C(CC(=O)NCc2ccco2)Sc2n[nH]c(-c3ccc(Cl)cc3)n2)cc1 (stereo not given)	101.0	100.0	-11.3	-9.3
Cc1cccc(-n2c(SCc3csc(C)n3)nnc2-c2cccc(S(=O)(=O)N(C)C)c2)c1	99.0	106.0	15.9	-51.9
Cn1nc(C(=O)N2CCCCC2)c2c1-c1ccccc1SC2	101.0	103.0	87.5*	-0.4
Cc1ccc(N2C(=O)C(C(C)C)NC2=S)cc1 (stereo not given)	101.0	99.0	29.9	-11.6
COc1ccccc1N(C(=O)C1CSC(=O)C1)C(C(=O)NC1CCCCC1)c1ccncc1 (stereo not given)	104.0	99.0	-3.8	-90.6
CCOC(=O)c1c(NC(=O)CC)sc(C)c1C	103.0	109.0	-3.3	-9.8
CC(C)(C)OC(=O)n1cc(C(=O)c2ccccc2O)cn1	101.0	107.0	-7.1	0.3
Cc1ccc(C)c(N2CCN(CCCNC(=O)c3oc4c(c3C)-c3[nH]ncc3CC4)CC2)c1	102.0	102.0	-8.3	-3.2
S=C(NCC1CCCO1)N1CCc2ccccc21 (stereo not given)	104.0	108.0	6.9	-10.1
Cn1cc(O)nc1NC(=O)c1cccc(Oc2ccccc2)c1	101.0	96.0	-5.5	.
CC(C)(C)c1ccc(C(=O)NCCn2c(N)c(C#N)c3nc4ccccc4nc32)cc1	.	.	39.6	-7.5
CCNS(=O)(=O)c1ccc(NC(=O)Cc2ccc(OC)cc2)cc1	101.0	103.0	-12.3	-16.6
O=C(Nc1ccccc1)c1ccccc1OCC(=O)N1CCCC1	105.0	98.0	-8.3	-15.7
COc1cc(C(=O)O)cc(OC)c1OCC(N)=O	96.0	100.0	-13.1	-7.6
NC(=O)NCCc1nc2ccccc2[nH]1	106.0	102.0	-6.9	-26.4
COc1ccc(C2CC(c3ccccc3)=NN2C(=O)CN(C)C2CCS(=O)(=O)C2)cc1 (stereo not given)	104.0	105.0	4.4	1.4
Cc1cc2nc(CSc3nc4ccccc4[nH]3)cc(=O)n2o1	100.0	102.0	3.0	1.5
CCc1cccc(NC(=O)Cn2ncc3c(=O)oc4ccccc4c32)c1	103.0	106.0	-4.5	-30.8

Exported with two lines to a compound: entries from further up.
Every second line gives: PV pol inh	PV pol inh intensity	MbtI inh	MenB inh
CC(C)Cn1c(SCn2nnc3ccccc3c2=O)nc2ccccc2c1=O
 : 103.0	108.0	-2.5	0.6
NS(=O)(=O)c1ccc(N2CCCC2=O)cc1
 : 103.0	107.0	.	-13.9
O=C(O)CSc1nc2ccccc2n2cnnc12
 : 100.0	113.0	8.7	-6.0
O=C(CCS(=O)(=O)c1ccc(F)cc1)Nc1ccccc1
 : 103.0	106.0	-2.8	-15.8

Another view of part of the listing above.
canonical_smiles | PV pol inh | PV pol inh intensity | MbtI inh | MenB inh
NS(=O)(=O)c1ccc(N2CCCC2=O)cc1 | 103.0 | 107.0 | . | -13.9
O=C(O)CSc1nc2ccccc2n2cnnc12 | 100.0 | 113.0 | 8.7 | -6.0
O=C(CCS(=O)(=O)c1ccc(F)cc1)Nc1ccccc1 | 103.0 | 106.0 | -2.8 | -15.8

Next compounds follow:
SMILES	PV pol inh	PV pol inh intensity	MbtI inh	MenB inh
COc1cccc(C(=O)OCC(=O)NCc2ccccc2)c1	98.0	99.0	28.8	1.4
COC(=O)c1sc(N)c(C(=O)OC)c1COC(=O)CNS(=O)(=O)c1cccc(C#N)c1	111.0	120.0	-21.1	0.5
COC(=O)c1ccc(NC(=S)NC2CC2)cc1	100.0	103.0	4.9	-12.9
CCCC1c2ccc(C)n2CCN1C(=O)Nc1cc(Cl)ccc1C(=O)OC (stereo not given)	105.0	105.0	7.5	-31.5
CCOC(=O)C1CCCN(C(=O)c2c[nH]n3c(=O)c(Cc4ccc(Cl)cc4)c(C)nc23)C1 (stereo not given)	100.0	105.0	10.6	6.6
COc1ccc(C2N(c3ccc(OC)cc3)C(=O)C23CCCC3)cc1 (stereo not given)	106.0	105.0	.	-31.6
N#Cc1ccc(COc2cccc3cccnc23)cc1	103.0	106.0	-27.5	.
CC(C)Oc1snc(Cl)c1C(N)=O	103.0	111.0	.	-8.3
CCn1cnc2cc(NC(=O)C3CCCCC3)ccc21	101.0	98.0	-7.8	-17.0
CCN(CC)C(=S)Nc1ccc2nsnc2c1	43.0	126.0	7.8	-40.9
COc1ccc(S(=O)(=O)NC(CC(=O)NC2CCCC2)c2ccco2)cc1 (stereo not given)	101.0	102.0	-8.1	-13.7
COc1cc2c(cc1OC)C(=O)NCC2	103.0	106.0	65.2	1.2
CCN(CC)c1ccc(C=C2C(=O)N(C)C(=S)N(C)C2=O)cc1	103.0	106.0	8.8	-3.6
COc1cc(OC)c(C(=O)OC(C)C(=O)N2CCC(C)CC2)cc1OC (stereo not given)	106.0	102.0	1.8	-1.5
COCCCn1c(C)cc(C(=O)COc2cccc(C#N)c2)c1C	108.0	115.0	-2.9	-33.1
COc1cccc(C2c3c(oc4ccccc4c3=O)C(=O)N2c2ccccn2)c1 (stereo not given)	96.0	103.0	-8.8	10.0
Cc1ccc(CSc2n[nH]c(N)n2)cc1	100.0	103.0	-14.8	-16.9
O=C(c1cc(-c2ccccc2)n[nH]1)N1CCn2c1nc1ccccc12	102.0	103.0	-14.3	-5.4
CN(C(=O)c1ccc(S(C)(=O)=O)cc1)c1c(N)n(Cc2ccccc2)c(=O)[nH]c1=O	101.0	102.0	8.1	-3.9
CC(C)N(C(=O)NC(=O)Nc1ccccn1)S(C)(=O)=O	100.0	103.0	i	-6.0
Cc1nn(CCCC(=O)NCCC2=CCCCC2)c(=O)c2nccn12	104.0	101.0	-6.5	-22.2
CN1CCC(N(C)C(=O)Nc2ccc(Cl)c(Cl)c2)CC1	100.0	99.0	4.8	3.5
O=C1c2ccccc2S(=O)(=O)c2cc(C(=O)N(Cc3ccco3)Cc3cccs3)ccc21	103.0	108.0	10.9	-49.5
CC(=O)N1CCN(C(=O)c2ccc(C(=O)c3ccccc3)cc2)CC1	104.0	99.0	23.3	6.2
Cc1c(C#N)c(NC(=O)COc2ccc(F)cc2Br)n(Cc2ccco2)c1C	108.0	109.0	11.2	-4.6
COc1ccc(S(=O)(=O)N(CC(N)=O)c2ccc(C)cc2)cc1	103.0	104.0	-4.7	-21.1
CC(=O)Nc1ccccc1OCC(=O)c1cc(C)n(CC2CCCO2)c1C (stereo not given)	101.0	97.0	2.9	13.4
O=C(NCc1ccco1)c1cc2c(s1)CCCC2	102.0	105.0	-8.5	.
CC(C(=O)O)c1c(C(=O)O)[nH]c2ccccc12 (stereo not given)	99.0	103.0	109.4	13.6
CCC(CC)C(=O)Nc1nc2ccc(OC)cc2s1	101.0	100.0	0.9	-12.3
CCOc1ccc(-c2nnc(SC(F)F)n2CCC(=O)O)cc1	104.0	108.0	-3.6	2.7
